D2 agonist = activates the human D2 dopamine receptor; DiscoveRx PathHunter D2 beta-arrestin, luminescence, 90 min; 100% = 57 uM dopamine signal; activation, % (test concentration not listed); 0.084% of 360,000 active; in the data active = activation above about 40%; inconclusive = about 15% to 40%; inactive = below about 15%; also: compound concentration not given in the record; the text of the record calls up to 30% inactive
Target sequence (P14416 whole entry, looked up): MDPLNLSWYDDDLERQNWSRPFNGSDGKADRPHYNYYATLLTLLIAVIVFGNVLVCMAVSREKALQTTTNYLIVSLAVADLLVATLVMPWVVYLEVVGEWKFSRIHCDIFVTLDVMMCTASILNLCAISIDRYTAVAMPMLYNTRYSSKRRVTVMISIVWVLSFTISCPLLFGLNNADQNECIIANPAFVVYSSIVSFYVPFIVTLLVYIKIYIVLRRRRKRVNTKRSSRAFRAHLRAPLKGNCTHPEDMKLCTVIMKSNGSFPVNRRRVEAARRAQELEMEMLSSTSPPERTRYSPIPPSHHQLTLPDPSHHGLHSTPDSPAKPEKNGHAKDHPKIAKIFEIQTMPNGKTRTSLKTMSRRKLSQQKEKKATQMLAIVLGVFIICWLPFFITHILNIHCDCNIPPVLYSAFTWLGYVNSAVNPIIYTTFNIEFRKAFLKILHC
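DiscoveRx PathHunter D2 beta-arrestin cells (2,100/well) attached overnight, then compound-stimulated 90 min at 37 C in HBSS/10 mM HEPES/0.1% Tween-20 buffer; beta-galactosidase complementation read by luminescence after 1 h at ambient temperature. Dopamine 57 uM final (EC100) as control.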
PINK1 modulator = changes PINK1 expression; PINK1 immunofluorescence, high-content cytometry, 24 h; Potency, µM (titrated, usually from 76.6 µM), for inactives: at the highest dose activation (PINK1 increase), most hits filed as activators; 0.2% of 410,000 active; AID 624263; active = well fitted activation curve with a large enough effect; inconclusive = small, poorly fitted or top-dose-only effect; inactive = flat fitted curve, though single readings scatter; cell line not stated here;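 also: potency is read from the fitted curve at half-maximal effect; % of control where 0% means no effect; nearly all actives have a fitted effect of over 65% in size; a mitochondrial uncoupler was the plate control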
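Measures PINK1 amount and localization on or inside mitochondria by immunofluorescence. Stable cells get compounds at 5 concentrations for 24 hours before fixation and staining; CCCP controls included.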
D2 potentiator = human D2 receptor positive allosteric modulation. DiscoveRx D2 beta-arrestin cells, luminescence, 90 min; 100% = 57 uM dopamine signal. P14416. 0.23% of 360,000 active. potentiation, % (no concentration beside the values); active = potentiation of 50% or more; inconclusive = 30% to 50%; inactive = 30% or less;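 also: compound concentration not given in the record; tested on top of an EC20 dose of dopamine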
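PathHunter beta-arrestin assay in DiscoveRx D2 cells. Compounds were added with an EC20 of dopamine (50 nM final) for 90 min at 37 deg C. Luminescence was read 1 h after detection reagent, with 57 uM dopamine as the EC100 control.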
Six1-Eya2 inh = blocks human Six1 binding to Eya2; AlphaScreen GST-Six1/His-Eya2 binding, biochemical; active compounds read low; control for the full effect not named in the record; activity change, % (test concentration not listed); 0.56% of 360,000 active; AID 651725; in the data active = activity change below about -65%; inconclusive = about -30% to -65%; inactive = above about -30%; also: % is scaled to controls: 0 for no effect and ±100 for the full control effect
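AlphaScreen luminescence read after one hour at 37 °C in darkness. Pin-transferred compounds met GST-Six1 and His-Eya2 protein (5X stock 250 nM/500 nM) plus glutathione donor and Ni-chelate acceptor beads (5X, 50 ug/mL).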
TRPML1 ag = activates the human TRPML1 channel | Q9GZU1 | activation, % (concentration not given with the values) | 0.12% of 410,000 active | TRPML1-expressing cells, Ca2+ dye fluorescence, FDSS; host cell line not named in the record; reference of the full effect not given here | AID 624414; in the data active = activation above about 50%; inconclusive = about 30% to 50%; inactive = below about 30%; also: 0% is about no effect; the text of the record puts the active cut at 80%
Target sequence (Q9GZU1 whole entry, looked up): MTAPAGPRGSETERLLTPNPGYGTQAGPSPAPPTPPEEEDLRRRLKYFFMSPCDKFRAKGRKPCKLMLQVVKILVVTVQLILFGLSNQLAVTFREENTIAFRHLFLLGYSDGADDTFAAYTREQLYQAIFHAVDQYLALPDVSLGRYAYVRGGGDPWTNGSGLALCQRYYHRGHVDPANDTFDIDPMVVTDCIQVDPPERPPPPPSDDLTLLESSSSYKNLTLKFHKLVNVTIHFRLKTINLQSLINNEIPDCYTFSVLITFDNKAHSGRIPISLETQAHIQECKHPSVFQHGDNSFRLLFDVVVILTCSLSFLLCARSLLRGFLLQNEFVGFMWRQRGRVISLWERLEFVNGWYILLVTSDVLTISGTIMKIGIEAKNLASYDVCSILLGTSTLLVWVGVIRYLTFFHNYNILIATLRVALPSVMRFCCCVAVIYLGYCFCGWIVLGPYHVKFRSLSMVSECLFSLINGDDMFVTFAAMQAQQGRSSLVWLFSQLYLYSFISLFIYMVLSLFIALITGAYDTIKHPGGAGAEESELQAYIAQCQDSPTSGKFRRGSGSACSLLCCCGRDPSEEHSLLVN
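Cells: TRPML1-DL, 1X Tet inducer, ~16 h at 37 degrees C/5% CO2. Dye: ABD Ca8 no-wash + quencher, 45-90 min RT. Read: 10 s baseline, compound add, 110 s agonist phase; 54-4 EC80 (4uM final), 110 s antagonist phase.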
CtBP-E1A inh = blocks the CtBP interaction with E1A. 0.49% of 340,000 active. activity change, % (concentration not given with the values). AID 651724. AlphaScreen GST-E1A/His-CtBP binding, 1536-well; active compounds read low; control for the full effect not named in the record; in the data active means activity change below about -65%; inconclusive means about -30% to -65%; inactive means above about -30%; also: % is scaled to controls: 0 for no effect and ±100 for the full control effect
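GST-E1A and His-tagged CtBP (125 nM each as 5X stock) were preincubated with pin-transferred compound for 2 h at 37 °C in the dark, then glutathione donor and nickel acceptor beads were added for 1 h before AlphaScreen reading.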
* hit, by the source's call; ? = inconclusive; · = no result given; & = joins results of further samples; [ ] = dose if it differs, or a comment. Some of the compounds tested (hit frequency here may not be typical).

Sample of the layout:
SMILES | D2 agonist | PINK1 modulator | D2 potentiator | Six1-Eya2 inh | TRPML1 ag | CtBP-E1A inh
CN1CCC2(CC1)NC(=O)C1=C(CN(C)CC1)N2 | -3.0 | -0.9% | -14 | -2 | -0.5 | -2
CCn1c(C)[n+](CC(O)COCC2CC=CCC2)c2ccccc21 (stereo unspecified) | -2.6 | ? | -11 | 0 | 0.1 | 7
CCOC(=O)c1ccc(CNCc2ccc(Br)cc2)cc1 | -6.6 | ? | -31 | 55 | 0.9 | 24
CCOc1ccc(-n2c(O)c(N=Nc3c(C)n(C)n(-c4ccccc4)c3=O)c(=O)[nH]c2=O)cc1 | 1.0 | -0.4% | -11 | -90* | 0.5 | -91*

This part in full (from the top)
SMILES | D2 agonist | PINK1 modulator | D2 potentiator | Six1-Eya2 inh | TRPML1 ag | CtBP-E1A inh
CN1CCC2(CC1)NC(=O)C1=C(CN(C)CC1)N2 | -3.0 | -0.9% | -14 | -2 | -0.5 | -2
CCn1c(C)[n+](CC(O)COCC2CC=CCC2)c2ccccc21 (stereo unspecified) | -2.6 | ? | -11 | 0 | 0.1 | 7
CCOC(=O)c1ccc(CNCc2ccc(Br)cc2)cc1 | -6.6 | ? | -31 | 55 | 0.9 | 24
CCOc1ccc(-n2c(O)c(N=Nc3c(C)n(C)n(-c4ccccc4)c3=O)c(=O)[nH]c2=O)cc1 | 1.0 | -0.4% | -11 | -90* | 0.5 | -91*
O=C(Nc1ccccc1)c1cc([N+](=O)[O-])ccc1N1CCNCC1 | -7.1 | 1.2% | -6 | 0 | -0.4 | 3
O=C(NCc1ccc(C(=O)N2CCC3(CC2)OCCO3)cc1)c1ccc2c(c1)OCO2 | -2.4 | 7.0%[38.3 µM] | -7 | 1 | -0.5 | 0
CCC(=NC1CC1)c1c(O)n(-c2ccc(OC)cc2)c(=O)[nH]c1=O | -3.1 | -1.2% | 4 | 7 | -0.4 | 0
COc1ccccc1OCCCn1cc(C(=O)c2ccco2)c2ccccc21 | -3.9 | -6.4% | -6 | 1 | 2.6 | 22
CC(=O)NC1=C(N2CC2C)C(=O)C(NC(C)=O)=C(N2CC2C)C1=O (stereo unspecified) | 9.7 | 0.0% | 95* | 11 | -0.3 | 6
O=C(c1ccc(CS(=O)(=O)c2ccc(Br)cc2)o1)N1CCC2(CC1)OCCO2 | -1.3 | 1.5% | -10 | 5 | 1.3 | -4
Cc1ccccc1-n1c(C)nc2sccc2c1=O | -1.0 | 0.0% | 6 | 0 | 2.4 | -4
COc1ccc(-n2c(O)c(C(C)=NCCc3c[nH]c4ccccc34)c(=O)[nH]c2=O)cc1 | -7.7 | -1.2% | -2 | 0 | 0.5 | ·
CC1CCC(C(C)C)C(OP(N)(=O)c2ccccc2)C1 (stereo unspecified) | -2.5 | -0.9% | 5 | 10 | -0.3 | 1
c1ccc(-c2ccc(C(c3ccccc3)n3ccnc3)cc2)cc1 (stereo unspecified) | 10.0 | ? | -24 | -2 | -1.0 | -7
Cc1ccc(N2C(=O)NC(=O)/C(=C/c3ccc(-c4ccc(C(=O)O)c(Cl)c4)o3)C2=O)cc1 | -1.2 | -1.0% | 0 | -15 | 3.4 | 1
CCOP(=O)(OCC)C(O)c1ccc(Br)cc1 (stereo unspecified) | -2.8 | 0.2% | -10 | 0 | 0.2 | -7
CCOc1ccc(NC(=O)c2c(O)[nH]c(=O)[nH]c2=O)cc1 | 1.8 | 1.2% | 11 | 5 | -0.7 | 7
O=c1[nH]c(=S)n(-c2ccccc2)c(O)c1C=NCCN1CCNCC1 | 2.3 | -1.3% | -1 | -5 | 1.0 | -1
CC1CCOC(=O)C=CC=CC(=O)OC2CC3OC4C5OC5(C)C(O)CC4(COC(=O)C1O)C2(C)C31CO1 (stereo unspecified) | -0.7 | -6.9% | -15 | -5 | 0.4 | 2
CC1CCN(CC(=O)c2ccc3c(c2)OCCO3)CC1 | -2.7 | 0.7% | -45 | 3 | -0.4 | 7
COc1cc2c(cc1OC)C1C(=O)c3ccc4c(c3OC1CO2)CC(C(C)C)O4 (stereo unspecified) | 7.8 | ? | 1 | ? | 6.6 | ?
COC(=O)C1=C(c2ccc(OCc3ccccc3)c(F)c2)C[C@@H]2CC[C@H]1N2C | -8.8 | 1.7% | -4 | -9 | 0.0 | -1
CCOC(=O)C(C)(CC)NC(=O)CSP(=S)(OCC)OCC (stereo unspecified) | -0.7 | · | 0 | 5 | 0.7 | 13
c1ccc(P(c2ccccc2)c2ccccn2)cc1 | 1.9 | 0.2% | -5 | -14 | 0.4 | -13
CC(C)n1c(=O)c(C=Nc2ccc(Br)cc2)c(O)n(Cc2ccco2)c1=O | -6.6 | 2.7% | -6 | -1 | 0.5 | ·
c1cncc(C2Nc3cccc4cccc(c34)N2)c1 | · | 3.6% | -3 | -4 | -0.5 | 1
COC(=O)CCCNC(=O)CN1CC(c2ccccc2)CC1=O (stereo unspecified) | -1.1 | -3.3% | -21 | 11 | 0.6 | -1
CC12CC(=O)C3C(CCC4CC=CCC43C)C1CCC2=O (stereo unspecified) | 3.4 | 13% | -1 | 6 | 0.5 | 13
COc1ccc(-c2cc(-c3ccccc3)[n+](C)c(-c3ccccc3)c2)cc1 | -1.2 | ? | -12 | 11 | 0.4 | 2
COc1ccc(/C=N\N=C(N)N)cc1 | 2.3 | 4.4% | -6 | -3 | -0.8 | ·
NC(=O)Cn1cc(C=C2C(=O)NC(=O)NC2=O)c2ccccc21 | -3.9 | 1.0% | -3 | 5 | 0.3 | 6
COc1ccccc1N1CCN(Cc2ccccc2)CC1 | 1.8 | 0.8% | -67 | 0 | -0.2 | ·
CN1C(=O)c2ccccc2NC(=O)C1Cc1ccccc1 (stereo unspecified) | -2.3 | 3.8% | -3 | 1 | -0.5 | 0
Cc1ccc2nc(N3CCC(C(=O)N4CCC5(CC4)OCCO5)CC3)sc2c1 | 0.5 | 4.0% | -2 | 4 | -0.6 | -3
Cc1ccc(-n2c(O)c(/C=N/N3CCCCCC3)c(=O)[nH]c2=O)cc1C | 0.5 | 26% | -9 | 3 | 0.6 | 6
OC(CCNCCc1c[nH]c2ccccc12)C(F)(F)F (stereo unspecified) | 0.1 | -0.5% | -15 | -2 | 1.6 | 4
COc1cc(C2NCc3ccccc3-n3cccc32)ccc1O (stereo unspecified) | -4.1 | 2.3% | -9 | -1 | 0.7 | 6
COc1ccc2nc(/N=C/c3c(O)n(-c4cccc(Cl)c4)c(=O)[nH]c3=O)sc2c1 | -0.3 | 2.3% | 7 | -71* | -1.3 | ?
COc1ccc(-n2nnnc2C(c2ccccc2OC(F)(F)F)N2CCC3(CC2)C(=O)NCN3c2ccccc2)cc1 (stereo unspecified) | -4.1 | 1.2% | -3 | -20 | -0.7 | -15
CCOC(=O)[C@]12Cc3cc(OC)ccc3[C@H]1N(Cc1ccccc1)C(=O)c1ccccc12 | -2.0 | 2.1% | -10 | -6 | 0.4&0.3 | -8
CC(C)=CCSc1nnc([C@@H](N)Cc2c[nH]c3ccccc23)o1 | 0.7 | ? | -3 | -6 | 2.9 | -5
CNC(=S)N1CCN(CCN=Cc2c(O)n(-c3ccc(C)cc3)c(=S)[nH]c2=O)CC1 | -2.7 | 1.6% | -4 | 4 | 1.1 | ·
CC(C)(C)N(NC(=O)c1ccccc1)C(=O)c1ccccc1 | 0.1 | 2.1%[38.3 µM] | -4 | 0 | 0.0 | -12
Cn1c(O)c(C=Nc2ccc(Br)cc2)c(=O)n(C)c1=O | 0.6 | 1.7% | -1 | -1 | 0.2 | -3
N#CCC(=O)NN1Cc2ccccc2C1=N | 2.2 | 1.4% | -7 | 1 | 0.5 | ·
CCn1ccnc1CN1CCCC(C(=O)c2cc(C)c(OC)c(C)c2)C1 (stereo unspecified) | -3.9 | -1.0% | -20 | -7 | -0.9 | ·
CC(=O)O[C@H]1CC[C@@]2(C)C(=CC(=O)C3C2CC[C@@]2(C)C3C[C@H](OC(C)=O)[C@@H]2OC(C)=O)C1 (stereo partly specified) | 4.8 | -1.6% | 1 | 7 | -0.3 | 2
COC(=O)C1=C(c2cccc(OCc3ccccc3)c2)C[C@@H]2CC[C@H]1N2C(=O)NCc1ccc(Cl)cc1 | -9.2 | 0.5% | -4 | 2 | 2.6 | 0
CCCCn1c(NC(=O)c2ccco2)c(C(=O)OCC)c2nc3ccccc3nc21 | -5.0 | · | -27 | -7 | 0.9 | 9
O=C(NC1CN2CCC1CC2)c1cc(Cl)c([N+](=O)[O-])c2nc[nH]c12 (stereo unspecified) | 3.5 | -2.2% | 4 | 6 | -0.2 | 18
Nc1ccccc1C(=O)OCC(=O)c1ccc2c(c1)OCCO2 | -4.3 | 0.7% | 8 | -24 | 1.2 | ·
COCCOC(=O)c1c(C)oc2ccc(OC(=O)N(C)C)cc12 | 0.0 | -0.5% | 4 | 4 | -0.2 | 3
CCc1cc2c(s1)NC(=O)CN=C2c1cccs1 | -1.0 | 8.4%[38.3 µM] | -7 | 0 | 0.7 | -9
CC1CCN(CCc2nc3ccccc3[nH]2)CC1 | -1.0 | 2.3% | -16 | 9 | 1.2 | 0
COc1cc(CC2C(=O)N(C)C(=O)N(C)C2=O)ccc1OCc1ccccc1 | -0.6 | -2.2%[38.3 µM] | -2 | 2 | -0.1 | 0
Cc1nn(Cc2ccccc2Cl)c(C)c1C(=O)NC1CCCc2ccccc21 (stereo unspecified) | -5.2 | 1.0% | -12 | 22 | 0.0 | 20
N#CC(C#N)=Cc1ccc(N2CCOCC2)cc1 | -3.8 | 2.3% | -4 | -1 | · | 1
CC(C)N1OC2CC1c1nc3ccccc3n1C2 (stereo unspecified) | -3.3 | 1.6% | -7 | 7 | -0.4 | 4
CCC1=Nc2cc(C(=O)N3CCC4(CC3)OCCO4)ccc2Sc2ccc(Br)cc21 | -2.6 | 0.3% | -15 | -9 | 0.6 | -2
CN1CCc2c([nH]c3ccccc23)C1 | -3.6 | -0.5% | -105 | 4 | · | -1

Next structures follow.
SMILES | D2 agonist | PINK1 modulator | D2 potentiator | Six1-Eya2 inh | TRPML1 ag | CtBP-E1A inh
COc1ccc(-c2ccc3c(c2)CN(C(=O)C(C)(C)C)Cc2cnnn2-3)cc1 | -3.2 | 12% | -2 | 0 | 1.2 | -7
CC(C)OC(=O)c1c(N)n(CC2CCCO2)c2nc3ccccc3nc12 (stereo unspecified) | -3.1 | 4.0% | -6 | 0 | -0.4 | 2
COC(=O)C1=C(c2ccc(S(C)(=O)=O)cc2)C[C@@H]2CC[C@H]1N2C(=O)NCc1ccccc1 | -4.6 | 0.5% | -5 | -1 | -0.7 | 7
CCN(CC)C(=O)c1ccc(NC(=O)c2cccc(S(=O)(=O)N3CCN(Cc4ccccc4)CC3)c2)cc1 | 3.1 | 1.6% | 25 | -4 | 0.7 | -7

Profiles from above. Order of screens: D2 agonist | PINK1 modulator | D2 potentiator | Six1-Eya2 inh | TRPML1 ag | CtBP-E1A inh
Listed for `COC(=O)C1=C(c2ccc(S(C)(=O)=O)cc2)C[C@@H]2CC[C@H]1N2C(=O)NCc1ccccc1` : -4.6 | 0.5% | -5 | -1 | -0.7 | 7
Listed for `CCN(CC)C(=O)c1ccc(NC(=O)c2cccc(S(=O)(=O)N3CCN(Cc4ccccc4)CC3)c2)cc1` : 3.1 | 1.6% | 25 | -4 | 0.7 | -7
